High-throughput results (PubChem)
CSC inhib: cancer stem cell inhibition; cancer stem cell-like cells viability, luminescence; inhibition, % at 7.5 µM; actives 1.1% (n = 300,000); AID 2717;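 active = mean at 75% or more and at least half the replicates too; inconclusive = mean and replicates disagree; tested in HMLE shEcad cells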;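 note: 0% = median of negative and 100% = median of positive control wells; the first replicate is given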
PABP polyA inh: blocks human PABP binding to poly(A) RNA. P11940. fluorescence polarization. inhibition, % at 35 µM. actives 1% (n = 290,000). AID 2014;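 active = 50% or more with normal probe brightness, or confirmed in later tests; inconclusive = above 50% with abnormal brightness, or retests that disagree; inactive = below 50% or failed in later tests; about a fifth of its hits are not listed in these tables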;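 note: calls also rest on retests at 20 µM and on dose response follow-up; controls were probe without protein and protein plus probe with vehicle; some compounds called inactive have numbers as strong as hits; many hits fall short of the cut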
HIV Env fusion: inhibitors of HIV Env-mediated cell fusion; HeLa-JRFL Env/CEM21 cell fusion, luciferase; inhibition, % at 12.3 µM; actives 1.1% (n = 360,000); AID 651610;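 active = mean replicate inhibition score of at least 50 and every replicate individually at or above 50; inconclusive = only one of the two criteria met; inactive = mean below 50 and not all replicates reaching 50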;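 note: 0% = plate neutral controls and 100% = maraviroc near 300 nM; one replicate is shown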
UUG fidelity: yeast start codon fidelity modulation; S. cerevisiae UUG-firefly luciferase reporter, luminescence/redox ratio; activity score, % at 18.7 µM; actives 0.13% (n = 350,000);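 active = replicate mean at a twofold rise or more, about +100% in these data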;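 note: firefly luciferase made from a UUG start codon reports start codon fidelity; reporter light over untreated wells divided by growth signal over untreated wells; some hits fall short of that in this replicate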
eIF4H FP inh: inhibitors of RNA binding by human eIF4H. eIF4H fluorescence polarization binding assay. inhibition, % at 35 µM. actives 0.94% (n = 290,000);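 active = 50% or more with normal probe brightness, or confirmed in later tests; inconclusive = above 50% with abnormal brightness, or retests that disagree; inactive = below 50% or failed in later tests; about a fifth of its hits are not listed in these tables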;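 note: calls also rest on retests at 20 µM and on dose response follow-up; 0% = protein and probe with vehicle and 100% = probe without protein; strong numbers were not always called active; many hits fall short of the cut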
MT1-MMP act inh: MT1-MMP (human) activation inhibition | P50281 | HT1080 RFP-PRO-GFP cells, GFP/RFP ratio fluorescence, overnight; percent of plate control window, DMSO zero | GFP/RFP ratio change, % at 20 µM | actives 0.061% (n = 360,000);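 active = GFP/RFP ratio change of at least 30% with cell ATP level not reduced by more than half and red fluorescence within 50% of control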; note: strong numbers were not always called active
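Assay system: HT1080 RFP-PRO-GFP cells | Dosing: 20 µM single dose, 1% DMSO | Incubation: Cells overnight before dosing, compound overnight, 37 °C, 5% CO2 | Evaluation: GFP/RFP fluorescence ratio | Control set: DMSO-only wells and HT1080 RFP-L50D-GFP cell wells as references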
Rce1 inhib: blocks yeast Ras-converting enzyme; calls only; actives 0.27% (n = 290,000); Q03530; yeast membranes, quenched prenylated peptide cleavage fluorescence;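 active = fall in fluorescence gain of 50% or more versus controls, with final raw signal at or below 3038400; inconclusive = same 50% fall but final raw signal above 3038400; inactive = fall in fluorescence gain under 50%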;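 note: plate controls were neutral control wells for no effect and wells lacking membranes for full effect; tested at 10 µM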
Target sequence (Q03530 whole entry, looked up): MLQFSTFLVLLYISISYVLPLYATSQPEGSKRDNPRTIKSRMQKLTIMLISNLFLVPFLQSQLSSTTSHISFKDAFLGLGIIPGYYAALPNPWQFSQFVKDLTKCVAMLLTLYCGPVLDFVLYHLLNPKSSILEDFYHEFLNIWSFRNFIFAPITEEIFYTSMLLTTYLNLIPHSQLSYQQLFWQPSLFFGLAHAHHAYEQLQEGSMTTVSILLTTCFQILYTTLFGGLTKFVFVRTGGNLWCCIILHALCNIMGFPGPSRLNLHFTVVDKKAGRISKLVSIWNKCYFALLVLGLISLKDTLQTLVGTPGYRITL
MT1-MMP act inh RFP: second read-out of MT1-MMP act inh, no call of its own (marks repeat the call); RFP signal change, %; measured here: RFP expression control read;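 0 = vehicle wells; hits needed this value within 50% of zero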
The depositor's hits bear a star; i = inactive; ? = inconclusive; · = no result given.

SMILES	CSC inhib	PABP polyA inh	HIV Env fusion	UUG fidelity	eIF4H FP inh	MT1-MMP act inh	MT1-MMP act inh RFP	Rce1 inhib
CC(=O)OCCCNc1cc(Sc2ccc(Cl)cc2)c2nonc2c1[N+](=O)[O-]	81*	7	13	·	-1	-14	-16	i
CCCn1c2c(c(O)c(C(=O)NCc3ccccc3)c1=O)CCCC2	-5	3	60	-19	7	-2	-3	i
O=C(CCc1nc2ccccc2s1)N1CCN(c2ccccc2)CC1	-3	4	17	·	-3	-3	1	i
COCCCNC(=S)N/N=C/c1ccc2ccccc2c1	·	-1	0	·	-1	-3	-2	i
CC(=O)Nc1ccc(NC(=O)C2CCN(C(=O)NC3CCCCC3)CC2)cc1	·	-10	15	-9	-15	1	1	i
CCN(CC)CCCN(C(=O)c1ccc(Br)cc1)c1nc(-c2ccc(OC)cc2)cs1	18	-2	17	7	-9	-8	-8	i
COc1ccccc1C(=O)NN(C)C1=NS(=O)(=O)c2ccccc21	-2	-2	2	3	1	-3	3	i
COc1ccc(-n2cc(C(=O)c3ccccc3O)cn2)cc1	24	6	-54	·	-4	3	-3	i
CC(Oc1ccccc1)C(=O)N=C1SC2CS(=O)(=O)CC2N1CCc1ccccc1 (stereo not drawn)	8	1	5	-11	-5	-4	-1	i
Cc1cc(C)nc(NC2=NCC(=O)N2c2cc(Cl)cc(Cl)c2)n1	-9	-5	8	-23	-11	4	2	i
CC(=O)NCCc1nc2ccccc2n1CCOc1ccc(C)cc1	-35	-2	1	-17	-8	2	1	i
COc1nc(Nc2cccc(C)c2)nc(N2CCCCC2)n1	8	-7	-24	-3	-1	1	-8	i
OC[C@@H]1CN(Cc2ccc(F)cc2)C[C@H](n2cnc3c(NC4CCCC4)ncnc32)O1	·	·	-9	2	·	4	-2	·
CNC(=O)c1cc(Nc2nnc(C)c3ccccc23)ccc1OC	2	-5	·	-2	2	-2	4	i
CN1CCc2c(sc3c2c(=O)n(-c2ccccc2)c2nncn32)C1	5	10	·	·	15	-1	1	i
CCOc1ccc(CCNC(=O)CN2C(=O)CCSc3ccccc32)cc1OCC	-15	2	14	-7	-6	-3	1	i
CC(=O)Nc1ccc(OCc2nnc(-c3ccccc3)o2)cc1	4	1	-23	-15	-4	6	3	i
COC(=O)c1cc(NC(=O)CN2CCc3cc4c(cc3C2)OCCCO4)cc(C(=O)OC)c1	-8	5	·	5	4	-3	-1	i
CCN(Cc1cc2ccccc2[nH]c1=O)C(=O)c1cccnc1	-8	-8	-94	-3	-3	5	4	i
Cc1cccc(NC(=S)NCCc2ccc3c(c2)OCCO3)c1C	-7	-9	17	-30	4	2	0	i
C#CCOCCOCCOCCNc1nc(N2CCN(C(=O)[C@H](CCC(=O)O)n3cc(C(N)CO)nn3)CC2)nc(N2CCN(C(=O)[C@H](Cc3ccc(O)cc3)n3cc(C(N)CC(C)C)nn3)CC2)n1 (stereo partly drawn)	-9	0	·	·	5	·	·	i
Cc1ccsc1C(=O)Nc1ccc2c(c1)OCCO2	22	2	-13	-34	5	-4	0	i
COC(=O)c1ccc(C23CC4(C2)[C@H](CN(CC2CCCCC2)[C@@H]4c2ccccc2)C3c2ccccc2)cc1 (stereo partly drawn)	12	-4	-66	-3	0	-4	-6	i
CCN(C(=O)C1CCN(c2nc(-c3ccc(OC)cc3)no2)CC1)c1ccccc1	51	2	-6	-1	-5	-2	-17	i
Cc1ccc(C(=O)c2sc3nc4c(cc3c2N)CCC4)cc1	-6	-19	-59	-10	-2	-1	0	i
Further records
SMILES	CSC inhib	PABP polyA inh	HIV Env fusion	UUG fidelity	eIF4H FP inh	MT1-MMP act inh	MT1-MMP act inh RFP	Rce1 inhib
Cc1nc(N2CCN(c3ccccn3)CC2)c2c(C)c(C(=O)N3CCN(c4ccccc4F)CC3)sc2n1	·	-1	8	3	8	1	-7	i
CCCNC(=O)c1ccccc1NS(=O)(=O)c1ccc2c(c1)OCCO2	·	2	-40	-3	-10	-3	-1	i
Cc1ccc(Sc2ncccc2NC(=O)c2ccccc2Cl)cc1	11	6	5	-9	4	-9	1	i
O=C(N=C1SC2CS(=O)(=O)CC2N1CCc1ccccc1)C1CCCCC1 (stereo not drawn)	-8	-2	0	-18	3	-5	-3	i
O=C(/C=C/c1ccco1)N1CCCC(c2ccccc2)C1 (stereo not drawn)	-10	6	-94	·	43	10	-7	i
Cn1c(N)c(C(=O)COC(=O)Cc2c(F)cccc2Cl)c(=O)n(C)c1=O	-2	·	·	-13	·	0	1	·
c1ccc(CC2CCN(c3nc4ccccc4n4nnnc34)CC2)cc1	-21	-3	·	-22	-1	-2	3	i
CCOc1ccc(OCC)c(NC(=O)CCNS(=O)(=O)c2cc(Br)cnc2N)c1	-12	-1	15	-22	-1	-3	3	i
CCCC(=O)Nc1cc(-c2nn(C)c(=O)c3ccccc23)ccc1N1CCCCC1	43	·	-23	1	·	6	-2	i
O=C1[C@H]2CCC=C[C@H]2[C@H](c2ccccc2Br)N1Cc1ccccc1	·	·	-26	-1	·	-2	-9	·
CC(C(=O)N1CCc2ccccc21)N1CCN(c2cccc(C(F)(F)F)c2)CC1 (stereo not drawn)	-4	2	13	-2	6	4	0	·
COc1cc(Br)c(S(=O)(=O)Nc2c(C)n(C)n(-c3ccccc3)c2=O)cc1OC	-14	2	7	-1	-12	1	3	i
O=C(c1ccc2ccccc2c1)N1CCN(c2ccc(O)cc2)CC1	27	-13	8	-16	-10	-5	0	i
NS(=O)(=O)c1ccc(CCNC(=O)C(=O)Nc2cc3c4c(c2)CC(=O)N4CCC3)cc1	5	·	-8	-17	·	0	1	i
O=C(NCc1cccc(C(F)(F)F)c1)C1CC(c2ccccc2F)=NO1 (stereo not drawn)	26	·	-4	-27	·	6	4	i
O=C(NC1CCCCC1)C(c1cccs1)N(Cc1cccs1)C(=O)c1cccs1 (stereo not drawn)	-1	-4	94*	-13	-18	-20	-19	i
CCOC(=O)C(CC)n1cnc2c(nnn2-c2ccc(OC)cc2)c1=O (stereo not drawn)	4	-5	-10	-18	-16	1	3	i
Cc1ccc(S(=O)(=O)N(C)Cc2ccc(C(=O)NN=C(CC(C)C)CC(C)C)cc2)cc1	7	-12	-19	·	5	7	11	i
C/C(CC(=O)Nc1cc(C)ccn1)=N\NC(=O)C(=O)Nc1cccc(C)c1	-5	?	6	·	-6	1	3	i
Nc1ncnc2c1ncn2[C@@H]1O[C@H](CNC(=O)[C@@H](N)CO)[C@@H](O)[C@H]1O	·	·	-4	-33	·	0	4	·
COc1ccc(NC(=O)CN2C(=O)CSc3ncccc32)cc1	-12	-4	-16	-3	-3	6	4	i
O=C(O)C1CCCN1C(=O)C12CC3CC(CC(C3)C1)C2 (stereo not drawn)	-28	-7	7	-9	-18	-2	-3	i
CN(C(=O)CSc1nnc(-c2ccc(OC(F)F)cc2)n1N)C1CCS(=O)(=O)C1 (stereo not drawn)	-16	·	-3	·	·	2	3	i
COc1cccc(NC(=O)Nc2cccc(C)n2)c1	-12	-1	-69	-7	-1	-6	-9	i
Nc1ccccc1OCCOCCOc1ccccc1N	0	-1	-60	-21	-8	4	-5	i

Copied from the listing (7 entries):
SMILES	CSC inhib	PABP polyA inh	HIV Env fusion	UUG fidelity	eIF4H FP inh	MT1-MMP act inh	MT1-MMP act inh RFP	Rce1 inhib
C/C(CC(=O)Nc1cc(C)ccn1)=N\NC(=O)C(=O)Nc1cccc(C)c1	-5	?	6	·	-6	1	3	i
Nc1ncnc2c1ncn2[C@@H]1O[C@H](CNC(=O)[C@@H](N)CO)[C@@H](O)[C@H]1O	·	·	-4	-33	·	0	4	·
COc1ccc(NC(=O)CN2C(=O)CSc3ncccc32)cc1	-12	-4	-16	-3	-3	6	4	i
O=C(O)C1CCCN1C(=O)C12CC3CC(CC(C3)C1)C2 (stereo not drawn)	-28	-7	7	-9	-18	-2	-3	i
CN(C(=O)CSc1nnc(-c2ccc(OC(F)F)cc2)n1N)C1CCS(=O)(=O)C1 (stereo not drawn)	-16	·	-3	·	·	2	3	i
COc1cccc(NC(=O)Nc2cccc(C)n2)c1	-12	-1	-69	-7	-1	-6	-9	i
Nc1ccccc1OCCOCCOc1ccccc1N	0	-1	-60	-21	-8	4	-5	i

(cont.)
SMILES	CSC inhib	PABP polyA inh	HIV Env fusion	UUG fidelity	eIF4H FP inh	MT1-MMP act inh	MT1-MMP act inh RFP	Rce1 inhib
Cc1ccc(S(=O)(=O)N2CCC(C(=O)NCCCN3CCCC3=O)CC2)cc1C	·	5	0	-18	-2	-3	0	i
CCOc1cc(NC(=O)c2ccco2)c(OCC)cc1NC(=O)c1cc(OC)c(OC)c(OC)c1	·	-7	12	-18	6	18	-24	i
NS(=O)(=O)c1cccc(NS(=O)(=O)c2ccc(/C=C/C(=O)O)cc2)c1	-33	-2	-6	-17	-4	0	5	i
CCOC(=O)C1(Cc2ccc(Cl)cc2)CCN(C(=O)CCc2ccncc2)CC1	-18	-5	-6	·	3	-38	-31	i
COc1ccc(C(O)P(=O)(OC(C)C)OC(C)C)cc1OC (stereo not drawn)	·	·	-15	-7	·	3	2	i
CC(/C=N\Nc1nnc2c(n1)[nH]c1c(C)cccc12)=C\c1ccco1	-2	10	·	-20	-2	6	1	i
O=S(=O)(Nc1ccc(-n2cccc2)cc1)c1ccc(Cl)c(Cl)c1	84*	6	11	·	-4	2	-1	i
CC(C)N1CCN(Cc2nc(-c3ccccc3)cs2)CC1CCO (stereo not drawn)	15	1	-28	-14	-7	5	11	i
CCn1c(SCC(=O)N(C)C)nc2cc(S(=O)(=O)N3CCCCC3)ccc21	6	·	·	-13	·	1	0	i
Cn1cnc([N+](=O)[O-])c1SCC(O)CN1CCCCC1 (stereo not drawn)	0	-10	-14	·	0	-4	2	i
CC(Oc1ccccc1F)C(=O)NCCN1CCCCC1 (stereo not drawn)	-10	-6	·	-2	-2	·	·	i
Cc1cccc([C@@H]2[C@@H]3C(=O)N(Cc4ccccc4)C(=O)[C@@H]3[C@]3(C)C(=O)N(c4ccc(Br)cc4)C(=O)N23)c1	-37	5	·	-10	3	0	-3	i
N=c1c2c3c(sc2ncn1CCCN1CCOCC1)CCCCC3	19	8	-181	-18	-14	-1	-13	i
Cc1ccc(S(=O)(=O)CCC(=O)N(C)c2c(N)n(Cc3ccccc3)c(=O)[nH]c2=O)cc1	14	·	-15	-8	·	4	8	i
CCOC(=O)C1Cn2c(nc3c(c2=O)C(C)(C)Cc2ccccc2-3)S1 (stereo not drawn)	49	-4	·	-5	-2	-10	-4	i
O=C(Nc1ccc(N2CCN(C(=O)c3ccco3)CC2)cc1)C(c1ccccc1)c1ccccc1	·	-5	-64	11	-4	-5	-5	i

Three compounds already listed, arranged by the value under HIV Env fusion, low to high:
canonical_smiles | HIV Env fusion | UUG fidelity | MT1-MMP act inh | MT1-MMP act inh RFP | Rce1 inhib
O=C(NCc1cccc(C(F)(F)F)c1)C1CC(c2ccccc2F)=NO1 (stereo not drawn) | -4 | -27 | 6 | 4 | i
C/C(CC(=O)Nc1cc(C)ccn1)=N\NC(=O)C(=O)Nc1cccc(C)c1 | 6 | · | 1 | 3 | i
O=C(CCc1nc2ccccc2s1)N1CCN(c2ccccc2)CC1 | 17 | · | -3 | 1 | i

A portion of the library; the hit share may differ from the screen's.
